Proteasome disasm: inhibitors of ATP-driven 26S proteasome dissociation, primary screen, biochemical, bead-based flow cytometry, GFP-tagged proteasome; anti-FLAG beads, GFP-proteasome disassembly; 24,000 compounds, 0.2% hits; inhibition of disassembly, % (test concentration not listed); AID 751, 2007;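 active = above 40%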;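 note: plate controls were ATP control with full disassembly for no effect and ATP-gamma-S intact proteasomes for full effect; higher percent means more bead fluorescence retained so stronger block of disassembly; stock transfer was 100 nL into about 10 µL; wells with too few beads may also be inconclusive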
VCAM-1 up: enhancers of VCAM-1 display on endothelial cells, cell-based, plate reader, pooled HUVEC, TNFa stimulus (AID 455); HUVEC TNFa-induced VCAM-1 immunofluorescence, plate reader; numbers were filed only for top-ranked candidate wells; augmentation, % at 5 µM; 10,000 compounds, 0.2% hits;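 active = a compound raising TNF-alpha-driven VCAM-1 surface staining, with its hit status upheld on visual or statistical review; inactive = the rest, including hits rejected on review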;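 note: 0% = TNFa with vehicle and 100% = strongest image-checked hit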
An asterisk follows results filed as active; i = inactive; . = no result given.

SMILES	Proteasome disasm	VCAM-1 up
CN(C=C1C(=O)CC(C)(C)CC1=O)CCN1CCNCC1	-1.4	i
O=C1C(c2ccncc2)=C(O)c2ccccc21	-0.5	i
Cc1ccc(S(=O)(=O)CCc2nnc(NC(=O)c3cnccn3)s2)cc1	-0.6	i
COCCCNC(=O)CS(=O)(=O)Cc1nc(-c2cccc(OC)c2)oc1C	0.7	.
COc1ccc(OC)c(C2CC(=O)N3CN(c4cccc(Cl)c4C)CSC3=C2C#N)c1 (stereo not given)	1.5	.
Cc1oc(-c2ccccc2F)nc1CN1CCC(C(=O)NCc2ccco2)CC1	1.6	.
CN1C(=O)C(C(=O)NC(C)(C)C)C2c3ccccc3OC13CCCCC23 (stereo not given)	-3.8	.
COCCn1c(=S)[nH]c2ncccc2c1=O	0.0	.
CCOC(=O)c1c(NC(=O)c2cc(C3CC3)on2)sc2c1CCCC2	-2.3	.
CCC1CCCCN1C(=O)CSc1nnc(CNC(=O)c2cc(OC)c(OC)c(OC)c2)o1 (stereo not given)	-1.1	.
CCOC(=O)Nc1sc(=S)n(C)c1C	-0.7	i
CCCCCn1c(=S)[nH]c2ncccc2c1=O	0.5	.
Cc1cccc(NC(=O)c2sc3nc(-c4ccc(F)cc4)cn3c2C)n1	75*	.
CCOC(=O)N1CCN(S(=O)(=O)c2ccc3c(c2)CCN3C(=O)C2CC2)CC1	0.5	.
CCOC(=O)CSc1nnc([C@H](C)NC(=O)OC(C)(C)C)o1	0.8	i
CC(C)N1C(=O)C2C(c3ccccc3O)NC(C)(C(=O)O)C2C1=O (stereo not given)	0.3	.
COc1cc2c(cc1OC)CN(C(=O)COc1ccc(C#N)cc1)CC2	-0.3	i
C/C(N)=N\S(=O)(=O)c1ccc(Cl)cc1	-0.5	.
CC(CCc1ccco1)NC(=O)Cn1ncc2c1-c1ccccc1OC2 (stereo not given)	0.1	i
Cc1nc(S(=O)(=O)N(C)c2ccccc2)c(C#N)c(C)c1Cl	1.2	.
COc1cc2c(cc1OC)C(c1cccnc1)CC(=O)N2 (stereo not given)	-0.9	i
O=C(CCc1nc2ccccc2s1)OCC(=O)N1CCN(C(=O)c2ccco2)CC1	0.9	i
C=C(C)Cn1c(N(CCO)Cc2ccccc2)nc2c1c(=O)[nH]c(=O)n2C	-1.1	.
CCOc1cc(C(=O)N2CCN=C2SC)cc(OCC)c1OCC	0.7	i
O=C(CSc1nc(-c2ccco2)cc(C(F)(F)F)n1)N1CCN(Cc2ccccc2)CC1	1.6	.
COC(=O)C1=C(C)n2nnnc2NC1c1ccc(Cl)cc1 (stereo not given)	1.0	i
Cn1c(Cn2c(=O)sc3ccccc32)nnc1SCC(=O)NC1CCCC1	-0.6	.
Nc1nc(N2CCN(C/C=C/c3ccccc3)CC2)nc2ccccc12	1.5	i
Cc1ccc(C)c(S(=O)(=O)n2cnc3ccccc32)c1	-1.2	i
CCOC(=O)C1CCN(S(=O)(=O)c2cc(Br)cc3c2N(C(=O)C2CC2)CC3)CC1	9.4	.
CCc1ccc(C2CC(c3ccc(F)cc3)Nc3nc(N)nn32)cc1 (stereo not given)	-0.2	.
COc1ccc(OC)c(NC(=O)NC2(C(F)(F)F)Oc3ccccc3O2)c1	-0.4	.
COCCN(C(=O)Cn1nnc2ccccc21)C(C(=O)NC1CCCC1)c1cc(OC)ccc1OC (stereo not given)	0.1	i
Cc1cc(NC(=O)c2ocnc2C)no1	-3.2	.
Cc1ccc(S(=O)(=O)N2CCC(C(=O)NCCCN3CCCCCC3)CC2)cc1	0.6	.
CN(C)c1ccc(CNCCC2(O)CCOC(C)(C)C2)cc1 (stereo not given)	0.4	i
O=C(Nc1cccnc1)c1noc2c1CCCC2	-0.3	.
CCOC(=O)Cc1csc(NC(=O)C2CCCN(S(=O)(=O)c3cnc[nH]3)C2)n1 (stereo not given)	0.8	.
COc1ccccc1CC(=O)NCC1CCCO1 (stereo not given)	-2.1	i
CCOC(=O)C1CCCN(c2c(Nc3ccc(C)c(C)c3)c(=O)c2=O)C1 (stereo not given)	-0.6	i
CC1CCCC(NC(=O)CN(C)S(=O)(=O)c2cccc3cccnc23)C1C (stereo not given)	0.8	.
CCOc1cc(C(=O)N2CCN(c3ccccc3)CC2)cc(OCC)c1OCC	-0.7	i
Nc1c(S(=O)(=O)c2cccs2)c2nc3ccccc3nc2n1CC1CCCO1 (stereo not given)	-1.1	i
Cc1ccc(CCNC(=O)C2CCCN(S(=O)(=O)c3cccc4nsnc34)C2)cc1 (stereo not given)	0.7	.
O=C1c2ccccc2C(=O)N1CCCn1nnc(-c2ccc(N3CCOCC3)cc2)n1	1.0	i
O=C1CCc2cc(S(=O)(=O)N3CCC(C(=O)Nc4nccs4)CC3)ccc2N1	0.1	i
COc1ccccc1NC(=O)N1CCn2c(nc3ccccc32)C1	-0.7	.
COCCCn1c(=N)c(C(N)=S)cc2c(=O)n3cccc(C)c3nc21	11	.
CCCCOCP(=O)(CCCC)COCCCC	-0.5	i
N[C@@H](Cc1ccc(O)c(I)c1)C(=O)O	-0.5	i
Following part
SMILES	Proteasome disasm	VCAM-1 up
O=C(NCc1ccco1)c1noc2c1CCCC2	0.2	.
CC(=O)N1CCc2cc(S(=O)(=O)CCC(=O)NCc3cccs3)ccc21	-1.5	.
CCOc1ccc2c(c1)c1nnc(SCC(=O)N3CCC(C)CC3)nc1n2C	-2.5	i
Cn1c(=O)oc2cc(S(=O)(=O)NCc3ccco3)ccc21	-0.4	.
CCN1CCCC1CNC(=O)CS(=O)(=O)Cc1nc(-c2ccccc2C)oc1C (stereo not given)	1.0	i
Cc1ccccc1-c1nc(CS(=O)(=O)CC(=O)NCCCN2C(C)CCCC2C)c(C)o1 (stereo not given)	3.6	.
Cc1ccc(Cn2ncc3c(NCCCN4CCOCC4)ncnc32)cc1	-0.9	i
CSc1ccc(C2C3(C#N)C(N)=NC4(OCCO4)C23C#N)cc1 (stereo not given)	-0.2	.
CCCCOc1ccccc1-c1cc(C(=O)O)[nH]n1	1.4	.
CC1CCCC(C)N1C(=O)C1CC(c2ccc(F)cc2)=NO1 (stereo not given)	0.6	.
O=C(c1cc2ccccn2n1)N1CCN(c2ccccn2)CC1	1.5	.
O=C(CCN1CCN(c2ccc(F)cc2)CC1)Nc1ccc(F)cc1	-0.6	.
COc1ccc(OC)c(C2/C(=C(\O)c3ccc4c(c3)OCCO4)C(=O)C(=O)N2CCCN(C)C)c1 (stereo not given)	-0.8	i
O=C(Nc1cc(C(F)(F)F)ccc1N1CCCC1)c1ccc2c(c1)OCO2	-1.2	i
CCCc1nnc(NC(=O)NCCN2C(=O)C3C4C=CC(C4)C3C2=O)s1 (stereo not given)	-0.3	i
NC(=O)SCC(=O)Nc1cccc(Cl)c1	0.2	i
CC1CCN(C(=O)CCCOc2cc(=O)n(C)c3ccccc23)CC1	-3.2	.
CN(CC(=O)N1CCCCCC1)S(=O)(=O)c1cccc2cccnc12	-1.6	.
CCc1nnc(NC(=O)c2ccc(S(=O)(=O)N(CC)Cc3ccccc3)cc2)o1	-1.2	.
Cn1c(=O)cc(SCC(=O)Nc2ccccn2)c2ccccc21	0.5	.
C=CCc1cc(OC)ccc1OCC(O)CN1CCN(c2ccc(OC)cc2)CC1 (stereo not given)	-0.3	i
COc1cccc(-c2csc3nnc(SCC(=O)c4ccc(NC(C)=O)cc4)n23)c1	-0.2	i
COc1ccc(OCC(=O)N2CCN(C(=O)COc3ccc(Br)cc3)CC2)cc1	0.7	i
O=C(NCc1cccnc1)C1CCCN(S(=O)(=O)c2ccc(Cl)cc2)C1 (stereo not given)	-0.3	i
CCn1cc(C(=O)NCCCOC)c(=O)c2cc(S(=O)(=O)N(C)C)ccc21	1.1	i
Cc1cc(C)cc(OCC(=O)Nc2cccc(-c3nc4ncccc4o3)c2)c1	2.3	.
CCCN1C(=O)c2cc(C(=O)O)ccc2C1O (stereo not given)	-0.3	i
CCOC(=O)N1CCN(C(=O)C2CCC(CNS(=O)(=O)c3ccc(Cl)cc3)CC2)CC1 (stereo not given)	1.3	.
COC(=O)c1ccc(NC(=O)Cn2nnc3ccccc32)cc1	-0.5	i
O=C(CN1C(=O)c2ccccc2C1=O)NCC1COc2ccccc2O1 (stereo not given)	-0.8	i

Profiles, quoted from the list.
Shown for `COc1cc2c(cc1OC)C(c1cccnc1)CC(=O)N2` (stereo not given) = Proteasome disasm = -0.9; VCAM-1 up = i
Shown for `COc1ccc(OC)c(C2/C(=C(\O)c3ccc4c(c3)OCCO4)C(=O)C(=O)N2CCCN(C)C)c1` (stereo not given) = Proteasome disasm = -0.8; VCAM-1 up = i
Shown for `CCOC(=O)C1CCN(S(=O)(=O)c2cc(Br)cc3c2N(C(=O)C2CC2)CC3)CC1` = Proteasome disasm = 9.4; VCAM-1 up = .

(next part)
SMILES	Proteasome disasm	VCAM-1 up
CSc1nnc(Cn2c(=O)sc3ccccc32)n1C	-2.8	.
COc1ccc(-c2cc3nc(C)c(CCC(=O)NCc4ccco4)c(C)n3n2)c(OC)c1	0.1	i
CCC(C)(C)n1nnnc1C(c1ccccc1OC)N1CCSCC1 (stereo not given)	3.3	i
C/C=C/CSc1nc2c(c(=O)[nH]c(=O)n2C)n1Cc1ccc(C)cc1	0.0	i
COc1ccc(N2CSC3=C(C#N)C(c4cc(OC)ccc4OC)CC(=O)N3C2)c(OC)c1 (stereo not given)	0.6	.
CCOCCCNC(=O)c1c[nH]c2ccc(S(=O)(=O)Nc3cccc(OC)c3)cc2c1=O	-0.3	i
Cc1ccc(NC(=O)CCNS(=O)(=O)c2ccc3c(c2)oc(=O)n3C)c(C)c1	-1.2	.
O=C(NCN1CCCCC1)c1cccnc1	-0.6	i
CC(C)COc1ccc(-c2nnn(CC(=O)N3CCCC3)n2)cc1	-0.9	i
COc1ccccc1NC(=O)CCc1nc(-c2cccs2)no1	-1.9	.

Ordered by value in Proteasome disasm (high to low): some entries from above
SMILES	Proteasome disasm	VCAM-1 up
CCC(C)(C)n1nnnc1C(c1ccccc1OC)N1CCSCC1 (stereo not given)	3.3	i
CC(C)COc1ccc(-c2nnn(CC(=O)N3CCCC3)n2)cc1	-0.9	i
CSc1nnc(Cn2c(=O)sc3ccccc32)n1C	-2.8	.

Later entries:
SMILES	Proteasome disasm	VCAM-1 up
Cc1ccc(-n2ncc3c(=O)n(CC(=O)NC4CCCC4)cnc32)cc1C	-0.5	.
CC(C)CNC(=O)c1ccccc1NC(=O)CN(c1ccc2c(c1)OCCO2)S(C)(=O)=O	-1.2	i
COc1ccc(NC(=O)CSc2nc3ccccc3c(=O)n2CCNC(C)=O)c(OC)c1	-0.9	.
CC1CC(C)CN(CCCNC(=O)Cn2ncc3c(=O)oc4ccccc4c32)C1 (stereo not given)	1.2	.
CCCC(=O)c1ccc(N2CCN(C(=O)c3ccc(Br)cc3)CC2)c(F)c1	-1.7	.
Cc1cccc(N2CCN(C(=O)CS(=O)(=O)Cc3nc(-c4ccccc4F)oc3C)CC2C)c1 (stereo not given)	0.3	.
Cn1c(=O)n(C)c2cc(/C=N/n3cnnc3)ccc21	0.1	.
CCCCC(=O)Nc1cccc(-c2cn3ccsc3n2)c1	0.1	.
COc1cc(NC(=O)C2CCC(CNc3c(N4CCCCC4)c(=O)c3=O)CC2)cc(OC)c1 (stereo not given)	0.0	.
CCOC(=O)Cn1c(C(C)=O)nc2ccccc21	-1.4	.
O=C(c1c[nH]c2ccc(S(=O)(=O)N3CCOCC3)cc2c1=O)N1CCCC1	0.0	.
CCCN1Cc2cccc(C(=O)Nc3ccc4c(c3)OCO4)c2C1=O	-3.0	.
CCOC(=O)c1cnc2c(C)c(Cl)ccc2c1N1CCOCC1	2.2	.
Cc1c(Cl)cccc1NC(=O)CCN1CCCCC1	-0.3	i
COC(=O)c1cn(C(=O)c2ccccc2F)nc1N	-8.1	.
Cc1cc(S(=O)(=O)NCCCN2CCOCC2)ccc1F	-1.7	.
COc1ccc(C2=NOC(C(=O)NCC(C)C)C2)cc1 (stereo not given)	-0.4	.
O=C(C1CCN(S(=O)(=O)c2cccnc2)CC1)N1CCN(C2CCCC2)CC1	-0.2	.
COc1cccc(-c2cc(C(=O)Nc3cccc(O)c3)no2)c1	0.8	.
CC(=O)c1cc(-c2ccccc2)n(CC(=O)NCc2cccs2)c1C	1.3	.

2 entries from above, as labelled records.
COC(=O)c1cn(C(=O)c2ccccc2F)nc1N
  Proteasome disasm: -8.1
  VCAM-1 up: .

Cc1cc(S(=O)(=O)NCCCN2CCOCC2)ccc1F
  Proteasome disasm: -1.7
  VCAM-1 up: .

(next part)
SMILES	Proteasome disasm	VCAM-1 up
COC(=O)c1cc(Cl)c(NS(=O)(=O)c2ccccc2)cc1OC	-0.8	.
CCOC(=O)N1CCC(Nc2c(OCC)c(=O)c2=O)CC1	1.0	.
Cc1ccccc1NC(=O)CSc1nnc(Cc2cccn2C)n1-c1ccc(F)cc1	1.2	i
CCN(CC)S(=O)(=O)c1cc(C(=O)Nc2ccccc2C(=O)O)ccc1OC	1.1	.
COC(=O)CNC(=O)COC(=O)c1cc(Cl)cc(Cl)c1N	-0.7	i
O=C(NCCN1CCN(c2ccccc2F)CC1)C1c2ccccc2C(=O)N2CCc3ccccc3C12 (stereo not given)	-1.2	.
CC1CCN(C(=O)CNC(=O)Cn2ccc3ccccc3c2=O)CC1	2.9	.
COC(=O)c1cc(NC2c3ccccc3C(=O)N2c2ccc(Cl)cn2)cc(C(=O)OC)c1 (stereo not given)	2.2	.
CN1CC(=O)N/C1=N\C(=O)Nc1ccc2c(c1)N(C)C(=O)CS2	7.2	.
CC(=O)OC1CC(C)(C)N(OC(=O)c2ccccc2)C(C)(C)C1	0.0	.
COCCn1cc(C(=O)N2CCC(C)CC2)c2c3ccccc3n(C)c2c1=O	-1.6	.

High-throughput results deposited in PubChem by several laboratories.

An excerpt. The share of hits here may be higher or lower than overall.
